Source: PubChem BioAssay
ClpP mod = qHTS Assay for Activators of ClpP; purified B. subtilis ClpP, FRET peptide cleavage, 20 min; Potency, µM (series often up to 57.5 µM), without a hit: top-dose activity change, negative = active; hit rate 1.9% among 340,000; AID 651965, 2013; active = well fitted falling curve with a large enough effect; inconclusive = small, poorly fitted or top-dose-only effect; inactive = no such curve, though single readings can be large or run the other way; further: potency means the concentration at half of the fitted maximal effect; the source files actives as falling curves though it sought activators and does not explain the sign; nearly all actives have a fitted effect of over 65% in size; many hits overshoot -100%
Target sequence (P80244 whole entry, looked up): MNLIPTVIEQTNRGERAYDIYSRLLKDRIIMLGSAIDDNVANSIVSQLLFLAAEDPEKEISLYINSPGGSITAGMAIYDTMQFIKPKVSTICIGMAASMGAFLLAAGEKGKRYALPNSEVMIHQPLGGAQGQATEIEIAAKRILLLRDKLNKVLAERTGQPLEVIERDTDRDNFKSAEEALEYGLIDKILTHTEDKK
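Purified B. subtilis ClpP, 10 microg/mL final in Tris/HCl pH8 with KCl, BSA, glycerol and Tween-20, cleaved an Abz/nitrotyrosine-quenched decapeptide. Fluorescence (ex 320, em 430) was read at 0 and 20 min at room temperature. Delta was normalized to 5.8 microM ADEP and DMSO/no-enzyme controls.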
gsp antag = antagonizes gsp, the McCune-Albright syndrome mutation | gsp-mutant cells, cAMP HTRF, 30 min; control for the full effect not named in the record | hit rate 0.4% among 340,000 | Potency, µM (doses to about 76.9 µM), for the others: at the highest dose activity change, negative = inhibition, usual class: inhibitors; active = falling curve of any shape with a large fitted effect; inconclusive = falling curve, mostly with a smaller effect; inactive = flat or rising curve; cell line not stated here;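 further: intracellular cAMP measured with PDE inhibitor Ro 20-1724 present during compound exposure; potency means the concentration at half of the fitted maximal effect; on the % scale 0 is the no-effect control and ±100 the full control effect; nearly all actives have a fitted effect of over 65% in size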
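HTRF cAMP read-out (cAMP-d2 plus anti-cAMP antibody-K in lysis buffer, 30 min RT). Before lysis, cells are exposed to compounds with […] for 30 min at 37C in DPBS containing Ca/Mg, BSA and Tween 20.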
Menin MLL FP FL = displaces fluorescein MLL peptide from human menin | Fluorescence polarization, fluorescein-MLL peptide displacement from menin | FP activity change, % at 61.4 µM | 290,000 tested, under 10 active | AID 1766; inconclusive = falling polarisation curve, or a change in total fluorescence; inactive = total fluorescence flat and polarisation flat or rising; no compound was filed as active; the % refers to the polarisation; negative = inhibition;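 further: % of control where 0% means no effect; inhibitors lower the polarisation; unlabelled MLL peptide was the positive control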
TRPV1 potentiator = potentiators of human vanilloid receptor 1 (TRPV1); potentiation, % at 8.33 µM; AID 540277; Q8NER1; hit rate 0.02% among 320,000; TRPV1-expressing cells, Fluo-8 calcium influx, capsaicin EC20 potentiation; host cell line not named in the record; control for the full effect not named in the record; active means potentiation above 80%; inconclusive means 30% to 80%; inactive means below 30%; further: 0% is about no effect
Target sequence (Q8NER1 whole entry, looked up): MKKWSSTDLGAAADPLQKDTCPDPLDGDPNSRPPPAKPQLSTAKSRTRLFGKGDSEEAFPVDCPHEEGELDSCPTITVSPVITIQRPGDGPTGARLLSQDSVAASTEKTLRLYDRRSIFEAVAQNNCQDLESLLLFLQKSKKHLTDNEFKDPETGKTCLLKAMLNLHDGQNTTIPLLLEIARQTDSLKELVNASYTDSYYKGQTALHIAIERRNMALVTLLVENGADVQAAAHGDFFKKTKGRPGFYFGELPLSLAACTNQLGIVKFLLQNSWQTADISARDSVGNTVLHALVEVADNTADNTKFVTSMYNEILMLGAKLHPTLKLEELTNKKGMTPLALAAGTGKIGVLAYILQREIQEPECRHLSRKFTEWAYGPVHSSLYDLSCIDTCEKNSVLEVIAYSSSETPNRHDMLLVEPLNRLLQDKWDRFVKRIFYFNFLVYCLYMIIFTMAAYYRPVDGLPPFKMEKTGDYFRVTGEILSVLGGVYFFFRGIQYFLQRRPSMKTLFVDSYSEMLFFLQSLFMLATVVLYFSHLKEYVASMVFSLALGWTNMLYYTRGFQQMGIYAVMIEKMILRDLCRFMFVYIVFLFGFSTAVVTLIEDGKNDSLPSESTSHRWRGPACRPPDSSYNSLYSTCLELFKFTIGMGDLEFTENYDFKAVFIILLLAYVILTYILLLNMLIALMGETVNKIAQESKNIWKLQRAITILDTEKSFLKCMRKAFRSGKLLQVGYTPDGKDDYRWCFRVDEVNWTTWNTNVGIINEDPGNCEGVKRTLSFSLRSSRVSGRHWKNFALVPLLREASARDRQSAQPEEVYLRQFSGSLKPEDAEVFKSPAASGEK
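Cells expressing TRPV1 were dye-loaded with Fluo-8 and read kinetically: 10 s baseline, 3 min after compound (agonist portion), then 2 min after EC20 capsaicin (allosteric enhancer portion). Calcium-bound dye fluorescence at 480/520 nm.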
gsp agonist = agonists of gsp mutant (McCune-Albright syndrome) | Potency, µM (doses to about 76.9 µM), for the others: at the top dose activation (cAMP increase), actives largely listed as activators | AID 624287 | gsp mutant cells, cAMP HTRF, 30 min; control for the full effect not named in the record | hit rate 0.13% among 340,000; active = well fitted activation curve with a large enough effect; inconclusive = small, poorly fitted or top-dose-only effect, or another doubt; inactive = no such curve, though single readings can be large or run the other way; cell line not stated here;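 further: phosphodiesterase inhibitor Ro 20-1724 added with compounds to block cAMP breakdown; potency means the concentration at half of the fitted maximal effect; nearly all actives have a fitted effect of over 60% in size; about a fifth of the inactives were tested at one dose only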
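Cells stably selected in G418 were plated at 2000/well, grown 16-24 hr, then given compounds in DMSO with the PDE inhibitor […] (300 uM solution added) for 30 min at 37C; cAMP was read by HTRF.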
CtBP-E1A inh = inhibitors of CtBP/E1A interaction; hit rate 0.49% among 340,000; activity change, % (no concentration beside the values); AID 651724; AlphaScreen GST-E1A/His-CtBP binding, 1536-well; active compounds read low; control for the full effect not named in the record; in the data active means activity change below about -65%; inconclusive means about -30% to -65%; inactive means above about -30%; further: on the % scale 0 is the no-effect control and ±100 the full control effect
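Steps: dispense buffer (Tris pH 8.0, NaCl 300 mM, TCEP 1 mM, BSA, Tween 20); add 5X protein mix (GST-E1A, His-CtBP, 125 nM each); pin 23 nL compound; 2 h at 37 °C, dark; add 5X beads (50 ug/mL); 1 h; read.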
Sfp inh = blocks B. subtilis Sfp PPTase activity. Potency, µM, inactives show max response, negative = inhibition, usual class: inhibitors. Biochemical Sfp PPTase activity, qHTS. Q9F4F7. hit rate 3.5% among 310,000; active means well fitted inhibition curve with a large enough effect; inconclusive means small, poorly fitted or top-dose-only effect, or another doubt; inactive means no such curve, though single readings can be large or run the other way;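 further: the enzyme is Sfp with the accession as filed and its product quenches rhodamine fluorescence; potency means the concentration at half of the fitted maximal effect; 0% = enzyme reaction without inhibitor and -100% = no enzyme wells; top concentration of the series not given in the record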
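Fluorescence-quenching assay: 15 nM Sfp-PPTase preincubated 15 min at room temperature with compound, then 5 uM rhodamine-CoA and 12.5 uM BHQ-2-labelled YbbR peptide added. Fluorescence (ex 525/em 598 nm) read at start and after 30 min; difference gives rate.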
* marks the source's active call; other numbers are inactive results; ? = inconclusive; / = not tested or not shown; [ ] = another dose, or the depositor's remark. A portion of the library; rates above refer to the full screens.

#1 CC12CCCCC1=NC(c1ccc(Br)cc1)N2O (stereo unspecified)
#2 Fc1ccccc1CCNCc1ccccc1
#3 Fc1cccc(F)c1CN1CCN(c2ccc(Cl)cc2)CC1
#4 COc1ccccc1N1CCN(Cc2ccccc2F)CC1
#5 Cc1nc2ccccc2c(=O)n1-c1ccc(F)cc1
#6 CCOC(=O)c1sc2ccccc2c1NC(=O)c1coc2ccccc2c1=O

assay / entry,1,2,3,4,5,6
ClpP mod,3.4%,2.0%,0.4%,4.0%,1.4%,144%
gsp antag,3%,0%,-17%,-4%,6%,-2%
Menin MLL FP FL,3.9,3.3,-3.4,0.1,1.6,2.5
TRPV1 potentiator,-8,3,-3,-6,-4,24
gsp agonist,-35%[inhibitor],0%,23%[15.4 µM],?,-19%,8%
CtBP-E1A inh,0,9,-3,11,10,5
Sfp inh,-5%,11%,3%,-23%,4%,12%

Reprinted from the part before: four entries; new compounds follow.
#3 Fc1cccc(F)c1CN1CCN(c2ccc(Cl)cc2)CC1
#4 COc1ccccc1N1CCN(Cc2ccccc2F)CC1
#5 Cc1nc2ccccc2c(=O)n1-c1ccc(F)cc1
#6 CCOC(=O)c1sc2ccccc2c1NC(=O)c1coc2ccccc2c1=O
#7 O=C(CN1CCCC1=O)Nc1ccccc1
#8 COc1cc(CC(C)N)c(OC)cc1I (stereo unspecified)
#9 O=C(NCC(c1cccnc1)N1CCN(c2ccccc2)CC1)Oc1ccccc1 (stereo unspecified)
#10 CCOC(=O)C1=C(N)Oc2cc(C)oc(=O)c2C12C(=O)N1c3c(cccc32)C(C)=CC1(C)C (stereo unspecified)
#11 CCOC(=O)c1c(C)n(CCN2CCN(C)CC2)c2ccc(OC)cc12
#12 C/C(=N\Nc1ccccc1)c1c(O)n(Cc2ccccc2)c(=O)[nH]c1=O

assay / entry,3,4,5,6,7,8,9,10,11,12
ClpP mod,0.4%,4.0%,1.4%,144%,-3.0%,1.1%,-0.7%,-0.3%,-5.2%,-1.7%
gsp antag,-17%,-4%,6%,-2%,6%,-4%,-14%,?,5%,3%
Menin MLL FP FL,-3.4,0.1,1.6,2.5,2.6,15,1.8,3.3,0.1,36[activator]
TRPV1 potentiator,-3,-6,-4,24,12,/,-6,-14,5,2
gsp agonist,23%[15.4 µM],?,-19%,8%,?,/,-19%,-6%,?,-77%[inhibitor]
CtBP-E1A inh,-3,11,10,5,5,-3,-3,-1,-4,3
Sfp inh,3%,-23%,4%,12%,1%,/,-13%,2%,7%,-5%

Filtered by structure: those above containing an aryl methoxy group (three)
#4 COc1ccccc1N1CCN(Cc2ccccc2F)CC1
#8 COc1cc(CC(C)N)c(OC)cc1I (stereo unspecified)
#11 CCOC(=O)c1c(C)n(CCN2CCN(C)CC2)c2ccc(OC)cc12

assay / entry,4,8,11
ClpP mod,4.0%,1.1%,-5.2%
gsp antag,-4%,-4%,5%
Menin MLL FP FL,0.1,15,0.1
TRPV1 potentiator,-6,/,5
gsp agonist,?,/,?
CtBP-E1A inh,11,-3,-4
Sfp inh,-23%,/,7%

(listing goes on)
#13 C#C[C@]1(O)CCC2C3C(=O)C=C4C(Cl)=CCC[C@]4(C)C3CC[C@@]21C (stereo partly specified)
#14 COc1ccc(C(=O)OC2C[C@H]3CC[C@H](C2)N3C)cc1OC (stereo partly specified)
#15 OC(CNC1CCCCC1)C(F)(F)F (stereo unspecified)
#16 O=C(c1ccccc1F)c1cn(Cc2ccc(F)cc2)c2ccccc12
#17 CCOC(=O)C1=C(C)OC(N)=C(C(=O)OCC)[C@@]12C(=O)N(CC(N)=O)c1ccccc12
#18 C[C@]12CC[C@H](OC(=O)CCC(=O)O)CC1=CCC1C2CC[C@@]2(C)C1CC[C@@H]2OC(=O)CCC(=O)O (stereo partly specified)

assay / entry,13,14,15,16,17,18
ClpP mod,/,-4.7%,0.9%,-2.1%,-0.5%,/
gsp antag,-2%,4%,6%,-21%,11%,-13%
Menin MLL FP FL,/,/,-2.0,1.1,-3.6,/
TRPV1 potentiator,/,18,20,8,-9,/
gsp agonist,33%,/,-7%,-48%[inhibitor],-8%,-33%[inhibitor]
CtBP-E1A inh,3,-1,17,0,-1,-27
Sfp inh,/,/,9%,1%,8%,/

#19 O=C1C2CCCN2C(c2ccncc2)N1c1ccc(Cl)c(Cl)c1 (stereo unspecified)
#20 O=C(c1ccc(Cl)cc1)C1CCCN(Cc2ccc3nonc3c2)C1 (stereo unspecified)
#21 CCC(CC)NC1CCCCC1OC (stereo unspecified)
#22 CC(=O)Nc1ccc(S(=O)(=O)N2Cc3cnnn3-c3ccccc3C2C#N)cc1 (stereo unspecified)
#23 O=C(C[N+]12CCC(CC1)C(O)C2)c1ccc(Br)cc1 (stereo unspecified)
#24 COc1ccc(-c2nn(CCC#N)cc2C(=O)Nc2cccc([N+](=O)[O-])c2)cc1OC

assay / entry,19,20,21,22,23,24
ClpP mod,0.7%,-1.1%,-0.9%,-0.4%,-2.8%,0.7%
gsp antag,6%,-1%,22%,6%,9%,-9%
Menin MLL FP FL,0.9,-0.1,3.0,/,4.7,5.4
TRPV1 potentiator,-1,-11,-1,/,2,8
gsp agonist,?,27%,-5%[15.4 µM],/,19%,-42%[inhibitor]
CtBP-E1A inh,-3,-1,13,-10,-3,-3
Sfp inh,14%,-4%,-12%,/,11%,13%

#25 CN1CC(C(=O)c2cccc(C(F)(F)F)c2)C(c2ccc(Cl)cc2)C1 (stereo unspecified)
#26 COc1ccc(Cn2c(O)c(C=Nc3c(C)n(C)n(-c4ccccc4)c3=O)c(=O)[nH]c2=O)cc1
#27 Cc1cc(OC(=O)N(C)C)nc(-c2ccc(C)c(Cl)c2)n1
#28 CN1C(=O)C(=CN2CCN(C(=O)c3ccco3)CC2)C(=O)N(C)C1=S
#29 OCCN(Cc1ccccc1)Cc1cccc(F)c1
#30 CC(NCc1cccc(Cl)c1Cl)C(O)c1ccccc1 (stereo unspecified)

assay / entry,25,26,27,28,29,30
ClpP mod,/,-23%,/,-2.2%,0.0%,1.7%
gsp antag,8%,-2%,-16%,13%,6%,1%
Menin MLL FP FL,1.0,6.1,2.8,5.4,-3.9,2.9
TRPV1 potentiator,0,11,-20,1,?,-5
gsp agonist,0%[15.4 µM],13%,4%[15.4 µM],-16%,-33%,-30%[15.4 µM]
CtBP-E1A inh,-7,-7,4,-1,0,0
Sfp inh,-5%,16%,-7%,-29%,?,6%

#31 O=c1[nH]c(=O)n(-c2ccc(Br)cc2)c(O)c1C=NC(CO)(CO)CO
#32 O=C(c1cc(S(=O)(=O)N2CCC3(CC2)OCCO3)ccc1F)N1CCC2(CC1)OCCO2
#33 Cc1cc(/C=C2\C(=O)NC(=O)N(Cc3ccco3)C2=O)c(C)n1-c1ccc(C(=O)O)cc1
#34 CC(=O)Nc1ccccc1C(=O)OCc1cccc(F)c1
#35 CCC(=Nc1ccc2c(c1)CCC2)c1c(O)n(-c2ccc(OC)cc2)c(=O)[nH]c1=O
#36 CN1CCc2c(C#N)c(Cl)nc(Cl)c2C1

assay / entry,31,32,33,34,35,36
ClpP mod,/,1.6%,/,/,1.9%,3.9%
gsp antag,3%,5%,-7%,11%,-16%,-8%
Menin MLL FP FL,-0.3,-1.6,13,1.3,2.2,-0.5
TRPV1 potentiator,-4,-16,11,11,-8,2
gsp agonist,-18%,-22%,3%[15.4 µM],9%[15.4 µM],-13%[15.4 µM],15%
CtBP-E1A inh,0,/,-11,11,2,/
Sfp inh,25%,-2%,6%,17%,20%,5%

#37 CN1CCN(c2cc([N+](=O)[O-])ccc2Cl)CC1
#38 CC1OC(OC2C=C3CCC4C(CCC5(C)C(c6ccc(=O)oc6)CCC45O)C3(C)CC2)C(O)C(OC2OC(CO)C(O)C(O)C2O)C1O (stereo unspecified)
#39 C=CCN1C(=O)/C(=C/c2ccc(Br)s2)C(=O)NC1=S
#40 CC(=O)N1CN(C(C)=O)CN(C(C)=O)C1
#41 COc1cc(CN2CCN(C(=O)COc3ccccc3)CC2)cc(OC)c1OC
#42 COc1ccc(CCn2c(O)c(C=NCCCO)c(=O)[nH]c2=O)cc1OC

assay / entry,37,38,39,40,41,42
ClpP mod,0.0%,-11%,1.1%,-0.9%,-0.4%,-5.9%
gsp antag,13%,1%,?,7%,-6%,0%
Menin MLL FP FL,1.3,/,?,-1.9,1.6,5.5
TRPV1 potentiator,-6,/,9,-3,7,-5
gsp agonist,?,6%,7%,23%,1%,16%
CtBP-E1A inh,2,1,/,-8,35,0
Sfp inh,19%,/,40µM*,12%,-23%,10%

#43 CCCC1=C(C(=O)OCC)C2(C(=O)Nc3ccccc32)C(C#N)=C(N)O1 (stereo unspecified)
#44 OC(CNCCc1c[nH]c2ccccc12)c1ccccc1 (stereo unspecified)
#45 O=Cc1cn(Cc2ccc([N+](=O)[O-])cc2)c2ccccc12
#46 Cc1nc2nc(SCC(=O)N3CCC4(CC3)OCCO4)nn2c(C)c1Cc1ccccc1
#47 CC(C)CCOP(=O)(c1ccc(N(C)C)cc1)C(O)c1ccccc1 (stereo unspecified)
#48 COP(=O)(OC)/C(C=O)=N/Nc1ccc([N+](=O)[O-])cc1
#49 COc1ccc(CCNCc2ccccc2F)cc1OC
#50 CN1C(=O)C(=Cc2coc3ccccc3c2=O)C(=O)N(C)C1=O
#51 O=c1[nH]c(N2CCN(Cc3ccc4c(c3)OCO4)CC2)nc2c1CCC2

assay / entry,43,44,45,46,47,48,49,50,51
ClpP mod,1.7%,/,1.3%,-14%,/,/,-0.5%,2.7%,-1.2%
gsp antag,7%,8%,-5%,-1%,3%,14%,2%,0%,-1%
Menin MLL FP FL,-0.1,-0.4,0.8,3.8,4.4,1.8,-3.1,7.6,4.7
TRPV1 potentiator,-2,26,3,-6,-13,-3,?,6,?
gsp agonist,17%,-16%[15.4 µM],21%,11%,-21%,0%,?,-5%,-2%
CtBP-E1A inh,5,-5,2,0,0,4,-3,/,8
Sfp inh,10%,-1%,?,-11%,2%,28%,15%,-20%,25%
